gsp antagonist: gsp mutant antagonism. gsp-mutant cells, cAMP HTRF, 30 min; control for the full effect not named in the record. Potency, µM (series often up to 76.9 µM), for the others: at the highest dose activity change, negative = inhibition, hits mostly inhibitors. 340,000 tested, 0.4% active. AID 624288; active = falling curve of any shape with a large fitted effect; inconclusive = falling curve, mostly with a smaller effect; inactive = flat or rising curve; cell line not stated here;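 also: intracellular cAMP measured with PDE inhibitor Ro 20-1724 present during compound exposure; potency is read from the fitted curve at half-maximal effect; % is scaled to controls: 0 for no effect and ±100 for the full control effect; nearly all actives have a fitted effect of over 65% in size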
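G418-selected cells were plated in DMEM/10% FBS for 16-24 h at 37C, then treated with compounds plus the PDE inhibitor […] (300 uM solution added) for 30 min at 37C. Intracellular cAMP was measured by HTRF after 30 min lysis at room temperature.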
Six1-Eya2 blk: Six1/Eya2 interaction inhibition; activity change, % (no concentration beside the values); AlphaScreen GST-Six1/His-Eya2 binding, biochemical; hits give low values; control for the full effect not named in the record; 360,000 tested, 0.56% active; in the data active = activity change below about -65%; inconclusive = about -30% to -65%; inactive = above about -30%; also: % is scaled to controls: 0 for no effect and ±100 for the full control effect; compound concentration not given in the record
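AlphaScreen luminescence read after one hour at 37 °C in darkness. Pin-transferred compounds met GST-Six1 and His-Eya2 protein (5X stock 250 nM/500 nM) plus glutathione donor and Ni-chelate acceptor beads (5X, 50 ug/mL).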
D2 ag: activates the human D2 dopamine receptor | 360,000 tested, 0.084% active | activation, % (no concentration beside the values) | P14416 | DiscoveRx PathHunter D2 beta-arrestin, luminescence, 90 min; 100% = 57 uM dopamine signal; in the data active = activation above about 40%; inconclusive = about 15% to 40%; inactive = below about 15%; also: compound concentration not given in the record; the text of the record calls up to 30% inactive
Target sequence (P14416 whole entry, looked up): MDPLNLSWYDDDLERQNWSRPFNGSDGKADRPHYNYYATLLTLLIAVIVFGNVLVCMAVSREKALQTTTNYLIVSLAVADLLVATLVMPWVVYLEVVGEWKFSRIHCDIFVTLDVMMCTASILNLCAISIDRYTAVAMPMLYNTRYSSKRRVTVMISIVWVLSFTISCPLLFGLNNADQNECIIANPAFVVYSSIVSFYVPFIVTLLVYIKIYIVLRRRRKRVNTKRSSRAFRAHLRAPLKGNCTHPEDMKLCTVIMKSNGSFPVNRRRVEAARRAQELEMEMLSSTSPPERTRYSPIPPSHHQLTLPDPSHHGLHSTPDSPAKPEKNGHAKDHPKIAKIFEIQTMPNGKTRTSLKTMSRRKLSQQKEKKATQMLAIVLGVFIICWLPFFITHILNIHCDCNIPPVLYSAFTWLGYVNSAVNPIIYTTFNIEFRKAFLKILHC
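Agonist mode: compounds alone added to overnight-plated D2 PathHunter cells for 90 min at 37 C, with 57 uM final dopamine (EC100) defining full response. Beta-arrestin recruitment detected by chemiluminescent reagent, read after 1 h at ambient temperature.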
gsp ag: agonists of gsp mutant (McCune-Albright syndrome); 340,000 tested, 0.13% active; Potency, µM (doses to about 76.9 µM), inactives show top-dose activation (cAMP increase), most hits filed as activators; gsp mutant cells, cAMP HTRF, 30 min; control for the full effect not named in the record; active = well fitted activation curve with a large enough effect; inconclusive = small, poorly fitted or top-dose-only effect, or another doubt; inactive = no such curve, though single readings can be large or run the other way; cell line not stated here;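 also: phosphodiesterase inhibitor Ro 20-1724 added with compounds to block cAMP breakdown; potency is read from the fitted curve at half-maximal effect; nearly all actives have a fitted effect of over 60% in size; about a fifth of the inactives were tested at one dose only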
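Cells stably selected in G418 were plated at 2000/well, grown 16-24 hr, then given compounds in DMSO with the PDE inhibitor […] (300 uM solution added) for 30 min at 37C; cAMP was read by HTRF.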
CtBP-E1A inh: inhibitors of CtBP/E1A interaction; AID 651724; 340,000 tested, 0.49% active; activity change, % (concentration not given with the values); AlphaScreen GST-E1A/His-CtBP binding, 1536-well; hits give low values; control for the full effect not named in the record; in the data active means activity change below about -65%; inconclusive means about -30% to -65%; inactive means above about -30%; also: % is scaled to controls: 0 for no effect and ±100 for the full control effect
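Steps: dispense buffer (Tris pH 8.0, NaCl 300 mM, TCEP 1 mM, BSA, Tween 20); add 5X protein mix (GST-E1A, His-CtBP, 125 nM each); pin 23 nL compound; 2 h at 37 °C, dark; add 5X beads (50 ug/mL); 1 h; read.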
D2 PAM: potentiates the human D2 dopamine receptor allosterically; P14416; DiscoveRx D2 beta-arrestin cells, luminescence, 90 min; 100% = 57 uM dopamine signal; potentiation, % (concentration not given with the values); 360,000 tested, 0.23% active; active = potentiation of 50% or more; inconclusive = 30% to 50%; inactive = 30% or less;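 also: compound concentration not given in the record; tested on top of an EC20 dose of dopamine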
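D2 cells co-treated with compound plus 50 nM dopamine (EC20) for 90 min at 37 deg C to detect potentiation. Beta-arrestin recruitment was read as enzyme-fragment luminescence after 1 h at ambient temperature. Full response was set by 57 uM dopamine.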
An asterisk follows results filed as active; u = inconclusive; x = not tested or not shown; [ ] = another dose, or the depositor's remark.

Values in the order – gsp antagonist | Six1-Eya2 blk | D2 ag | gsp ag | CtBP-E1A inh | D2 PAM
1. Cc1ccc(/C=N/NC(=O)c2ccncc2)o1
→ -1% | -6 | -4.4 | 9% | -4 | 1
2. CCCCN1C(=O)NC(c2ccc(OC)cc2)C(C(=O)OCc2ccccc2)=C1C (configuration not stated)
→ 0% | -3 | -2.9 | x | 0 | -7
3. CCN1CCN(c2ccc(NC(=O)COc3ccc([N+](=O)[O-])cc3)cc2)CC1
→ 8% | -6 | -4.0 | 16% | 2 | -18
4. CC(=O)SCC(=O)N=c1sc2cc(F)ccc2n1C
→ -1% | 5 | -2.4 | -7% | -3 | -11
5. O=S(=O)(c1cccc(Cl)c1)N1CCCC1
→ 19% | 6 | 0.2 | 8% | 10 | -9
6. CCC(C)(C)n1nnnc1C(c1ccc(C)cc1)N1CCN(C(=O)c2ccco2)CC1 (configuration not stated)
→ -7% | -3 | -3.4 | -19% | 0 | -11
7. FC(F)Oc1ccc(N=C2SCC3CCCCN23)cc1 (configuration not stated)
→ 3% | 4 | 7.4 | -23% | 22 | -3
8. COc1ccc(-c2nc3c(s2)CCc2onc(-c4ccc(OC)cc4)c2-3)cc1
→ 2% | 3 | -1.6 | 17% | x | -2
9. CCOc1ccc(NC(=O)CCSc2ccc(C)cc2)cc1
→ -4% | 8 | 1.0 | -10% | 9 | -12
10. C=CCNC(=S)NNC(=O)COc1cccc(Cl)c1
→ 10% | -2 | -2.4 | -10% | 0 | -4
11. COc1ccc(CNC(=O)CNC(=O)CNS(=O)(=O)c2ccc(C)c(C)c2)cc1
→ -3% | -14 | -2.4 | 11%[15.4 µM] | 14 | 5
12. CCOC(=O)Cn1cc(/C=N/NC(=O)c2ccc(C#N)cc2F)c2ccccc21
→ -10% | 0 | -0.3 | 13% | -1 | -10
13. FC(F)(F)c1cccc(-c2cc3nc(NCCOc4ccccc4)ccn3n2)c1
→ x | 12 | 7.1 | x | 21 | -3
14. CCCCCCc1nnc(NC(=O)OCC)s1
→ 13% | 8 | -2.0 | 26% | 10 | -10
15. CCN1CCc2c(sc(NC(=O)c3ccc(S(=O)(=O)N(C)c4ccccc4)cc3)c2C(=O)NC)C1
→ u | 4 | -7.0 | u | 10 | -2
16. O=C(NC(=S)NCCc1ccccc1)C1CCCCC1
→ -7% | 11 | -0.9 | -10% | 0 | -9
17. Nc1nc(NC(=O)c2ccc(F)cc2)ns1
→ 2% | 7 | -2.9 | 5% | -1 | -6
18. CSCC[C@H](CO)NC(=O)[C@H]1O[C@@H](n2cnc3c(N)ncnc32)[C@H](O)[C@@H]1O
→ x | -2 | -4.1 | x | 2 | -3
19. O=C(Nc1ccc(S(=O)(=O)Nc2ncccn2)cc1)C1CC(=O)N(c2ccc(Cl)cc2)C1 (configuration not stated)
→ 19% | 0 | 3.5 | -6%[15.4 µM] | -8 | 3
20. Fc1cccc(Cl)c1CSC1=NCCS1
→ -22% | 45 | 2.2 | -12%[15.4 µM] | 75 | 6

4 of the compounds above, as labelled records:
13: FC(F)(F)c1cccc(-c2cc3nc(NCCOc4ccccc4)ccn3n2)c1
  gsp antagonist: x | Six1-Eya2 blk: 12 | D2 ag: 7.1 | gsp ag: x | CtBP-E1A inh: 21 | D2 PAM: -3
14: CCCCCCc1nnc(NC(=O)OCC)s1
  gsp antagonist: 13% | Six1-Eya2 blk: 8 | D2 ag: -2.0 | gsp ag: 26% | CtBP-E1A inh: 10 | D2 PAM: -10
15: CCN1CCc2c(sc(NC(=O)c3ccc(S(=O)(=O)N(C)c4ccccc4)cc3)c2C(=O)NC)C1
  gsp antagonist: u | Six1-Eya2 blk: 4 | D2 ag: -7.0 | gsp ag: u | CtBP-E1A inh: 10 | D2 PAM: -2
16: O=C(NC(=S)NCCc1ccccc1)C1CCCCC1
  gsp antagonist: -7% | Six1-Eya2 blk: 11 | D2 ag: -0.9 | gsp ag: -10% | CtBP-E1A inh: 0 | D2 PAM: -9

(listing goes on)
Values in the order – gsp antagonist | Six1-Eya2 blk | D2 ag | gsp ag | CtBP-E1A inh | D2 PAM
21. Clc1ccccc1Nc1nc(-c2cccnc2)cs1
→ 8% | 1 | -5.0 | 0%[15.4 µM] | -3 | -10
22. CCOc1cc(CN2CCCC(N3CCN(c4ccc(F)cc4)CC3)C2)ccc1OC (configuration not stated)
→ -19% | -4 | -3.6 | 6% | 12 | -1
23. CCCOc1ccc(-c2c(=O)n(OCc3ccc([N+](=O)[O-])cc3)c3ccccc3[n+]2[O-])cc1
→ 6% | 13 | -2.7 | 13% | 14 | -5
24. Cc1sc2nc(CSc3ccccc3)nc(N3CCN(C)CC3)c2c1C
→ 10% | -21 | -3.4 | 10% | -26 | -32
25. Cc1ccc(S(=O)(=O)N2C[C@H]3N(C(=O)OC(C)C)N(C(=O)OC(C)C)C[C@H](OC(=O)NC4CC4)[C@@]3(O)C2)cc1
→ x | 20 | -7.3 | -112%[inhibitor] | -12 | -3
26. O=C(NCC1CCCO1)C1CCCN(Cc2cnn(-c3ccccc3)c2-n2cccc2)C1 (configuration not stated)
→ 1% | -1 | -4.0 | 23% | -3 | -25
27. CC1CCC(NC(=O)c2nc(Cn3ccc([N+](=O)[O-])n3)no2)CC1 (configuration not stated)
→ -37% | 2 | 0.0 | 30%[15.4 µM] | -1 | -2
28. O=C(O)c1cc(-c2ccc3c(c2)OCO3)nc2ccccc12
→ -15% | 1 | -3.0 | u | 1 | -2
29. CC(=O)N1CCc2c(sc(NC(=O)C3CCCN3S(=O)(=O)c3cccs3)c2C(N)=O)C1 (configuration not stated)
→ -6% | -14 | -2.5 | 0%[15.4 µM] | -2 | -20
30. COC(=O)c1oc2ccccc2c1NC(=O)CN1CCCC1
→ 1% | 1 | 2.7 | u | 7 | -3
31. COc1ccccc1NC(=O)c1c[nH]c2ccccc12
→ -17% | -7 | -1.2 | -2% | -19 | -4
32. O=C(O)c1cnc(-c2ccccc2)nc1-c1ccccc1
→ 1% | 1 | -5.3 | -10% | 3 | -7
33. CN(C)C(=O)c1ccc(NC(=O)c2cc(-n3cnnc3)ccc2Cl)cc1
→ -5% | 4 | -5.0 | 12% | -4 | 22
34. COc1ccc(C)cc1NC(=O)C(c1ccccc1)N1CCN(CC(=O)NC2CC2)CC1 (configuration not stated)
→ -16% | -2 | -3.1 | 0% | -1 | -37
35. Cc1cc(C)n2nc(C(=O)Nc3ccc4c(c3)OCCO4)nc2n1
→ -4% | 0 | -1.2 | u | -21 | 1
36. Cc1cc([N+](=O)[O-])ccc1NC(=S)NC(=O)C(c1ccccc1)c1ccccc1
→ -10% | u | -9.9 | u | -11 | -38
37. O=C1c2ccccc2C(O)N1c1ccccc1 (configuration not stated)
→ 8% | 16 | 6.8 | -39%[15.4 µM] | -13 | -5
38. O=C(Nc1ccccn1)c1cc(-c2ccc(Cl)s2)nc2ccccc12
→ -15% | 12 | -0.7 | -2% | x | 5
39. Cc1sc2ncnc(NCc3cccs3)c2c1C
→ u | -2 | -2.0 | 10% | 5 | 27
40. C#CCOCCOCCOCCNc1nc(N2CCN(C(=O)[C@H](CCCCN)n3cc(CN)nn3)CC2)nc(N2CCN(C(=O)[C@H](CO)n3cc([C@@H](N)C(C)C)nn3)CC2)n1
→ -5% | 2 | -4.0 | -6% | -23 | -12
41. CCN1CCN(C(=O)CN(C)S(=O)(=O)c2ccc3ccccc3c2)CC1
→ 5% | 0 | -3.2 | -21% | 4 | -11
42. O=C(Nc1ccccc1Cl)NC1(C(=O)NCC2CCCO2)CCCCC1 (configuration not stated)
→ 12% | -4 | -0.6 | 4% | 5 | -9
43. CCC(=O)CCC(=O)c1ccc2ccccc2c1
→ -3% | 0 | -1.8 | -12%[15.4 µM] | -19 | -7
44. Cc1nc2ccc(C(=O)c3ccccc3)cc2[nH]1
→ 11% | -6 | -4.1 | -3% | 5 | -3
45. CCN(CC)CCCNC(=S)N(CCO)Cc1cc2cc3c(cc2[nH]c1=O)OCO3
→ 13% | -5 | -6.4 | -12% | -14 | -19
46. COc1ccc(C(=O)Nc2ccccc2C(=O)N2CCOCC2)cc1OC
→ 9% | 4 | -3.8 | -2%[15.4 µM] | 6 | -8
47. N#Cc1c(-c2cccc(Cl)c2)[nH]c(=S)[nH]c1=O
→ -3% | 0 | -2.2 | -2%[15.4 µM] | -1 | -7
48. COc1cc(/C=N/n2nnnc2N)ccc1O
→ -3% | 1 | 0.6 | u | 2 | 1
49. CCN1CCN(CC(=O)Nc2cccc(C)c2)C(=O)C1=O
→ 6% | 1 | -1.7 | 12% | 2 | 1
50. COC(=O)c1cc(S(=O)(=O)Nc2cccc(-c3ccno3)c2)c[nH]1
→ x | -14 | 0.0 | -73%[inhibitor] | -3 | -11
51. O=C(CCCC(=O)N(CC(=O)NC1CCCCC1)CC1CCCO1)Nc1ccccn1 (configuration not stated)
→ -6% | 12 | 1.2 | -16% | -1 | -6
52. Cc1ccc(S(=O)(=O)NNC(=O)C2COc3ccccc3O2)cc1 (configuration not stated)
→ 8% | 4 | -2.1 | 7% | 14 | -8
53. O=C(O)CCN1C(=O)/C(=C\c2cccc(Oc3ccccc3)c2)SC1=S
→ -11% | -4 | 1.0 | 25%[15.4 µM] | -5 | 0
54. CCOC(=O)[C@H]1[C@H]2COc3ccc(C)cc3[C@@H]2N2C(=O)CN(Cc3ccccc3)C(=O)[C@@]12C
→ -15% | -9 | -1.9 | 29% | -1 | -11
55. Cc1cc(NC(=S)Nc2ccccc2)ccc1Br
→ -3% | -1 | 0.8 | -1% | 6 | -12
56. CN(Cc1cnn(-c2ccccc2)c1)C(=O)C1CCC(=O)N(C2CC2)C1 (configuration not stated)
→ 15% | 5 | -3.8 | -5% | 5 | 3
57. CN(C)C(CNC(=O)C1CCN(S(=O)(=O)c2cccc(C(F)(F)F)c2)CC1)c1ccccc1 (configuration not stated)
→ 9% | 1 | 1.8 | -20% | -3 | -2
58. CCCCOc1ccc(-c2cc(C(F)(F)F)c(C#N)c(SCC(=O)O)n2)cc1
→ -5% | -5 | -6.2 | -7%[15.4 µM] | 1 | 0
59. O=C(O)CNC(=S)N(Cc1ccc(F)cc1)C1CCCCC1
→ x | 0 | 0.9 | -31%[15.4 µM] | 7 | 10
60. CCS(=O)(=O)c1ccc(-c2csc(-c3ccccc3Cl)n2)c(Cl)c1Cl
→ 11% | 5 | 3.4 | u | 8 | -16
61. CC(=O)c1cccc(NC(=S)NNC(=O)c2ccco2)c1
→ 0% | 0 | -7.1 | -106%[inhibitor] | x | -6
62. Cn1c(N)c(Sc2ccc(F)cc2)c(=O)n(C)c1=O
→ 7% | 8 | -6.9 | -44%[inhibitor] | x | -4
63. C=C1CCN([C@@H](C)C(=O)OCc2ccc(C)cc2)S(=O)(=O)c2ccccc21
→ -3% | 2 | -2.8 | x | -15 | -4
64. O=C1CN(C(=O)CSc2nncs2)c2ccccc2N1
→ 3% | 5 | 3.4 | 11% | 9 | -1
65. COc1ccc(N(CC(=O)N/N=C/c2cc(OC)ccc2OC)S(=O)(=O)c2ccccc2)cc1
→ -12% | -12 | -0.2 | -2% | x | -9
66. O=C(NC1CCN(S(=O)(=O)c2ccc(F)cc2)CC1)c1ccco1
→ 0% | 8 | -4.5 | -14%[15.4 µM] | 1 | -4
